# T cruzi inh – blocks replication of Trypanosoma cruzi; T. cruzi beta-gal in NIH3T3, luminescence, 90 h; inhibition, % (no concentration beside the values); 300,000 tested, 1.4% active;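 active = mean inhibition across valid replicates above about 55%, limit read from the data; inconclusive = mean below that limit but half or more replicates reach it; inactive = mean below it, under half of replicates reach it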;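 note: signal also drops with host cell toxicity which is not excluded here; 0% = plate median of DMSO wells and 100% = zero luminescence signal; higher percent means less beta-gal luminescence so fewer parasites; stock transfer was 50 nL into about 50 µL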
# RanGTP-Impb inh – disruptors of Ran-importin-beta complex formation – biochemical, FRET, CFP-Ran, YFP-importin-beta, homogeneous, primary screen | cell-free CFP-Ran/YFP-importin-beta FRET ratio | inhibition, % (concentration not given with the values) | 300,000 tested, 1.1% active;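 active = most replicates above 15%; inconclusive = exactly half above 15%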;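 note: 0% = DMSO wells and 100% = Ran loaded with GDP instead of GTP; wells of about 40 µL received 100 nL stock; the first replicate is given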
# Vif TR-FRET – HIV-1 Vif–A3G interaction blockers – biochemical, TR-FRET, GST-Vif 1-94, biotin-A3G peptide, dose response retest, primary screen (AID 1117319); TR-FRET GST-Vif / biotin-A3G peptide binding; higher % means a stronger effect; test concentration not given here; strong numbers were not always called active; 260,000 tested, 0.57% active; one-dose inhibition, %; IC50 in µM for titrated hits;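 active = above the screen mean plus three standard deviations and confirmed in dose response; inconclusive = results disagree or hit not tested in dose response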;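 note: Vif residues 1-94 fused to GST binding biotinylated APOBEC3G peptide 110-148; 0% = full assay without inhibitor and 100% = GST in place of GST-Vif; retest series ran down from 100 µM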
# AF4-AF9 inh – blocks AF4 peptide binding to human AF9. AlphaScreen, biotin-AF4 peptide binding to FLAG-AF9. 350,000 tested, 0.47% active. inhibition, % at 10 µM;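 active = every replicate reaching a set inhibition limit, whatever the replicate mean, cut at about 25% in these data; inconclusive = mean inhibition reaches that limit but some replicates miss it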;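 note: 0% = plate neutral control median and 100% = total signal loss; the record names both 10 and 1 µM as test concentration; the first replicate is given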
# Beta apoptosis – beta cell apoptosis inhibition | INS-1E cytokine-induced death, ATP luminescence, 48 h; percent of positive-control rescue, neutral wells zero | protection from apoptosis, % (concentration not given with the values) | 300,000 tested, 0.8% active;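 active = all replicates at 75% or more, or half of them and the mean; inconclusive = half reach 75% but not the mean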;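 note: 0% = cytokine-treated negative control wells and 100% = positive control rescue; higher means more ATP so stronger rescue from cytokine killing; wells of about 40 µL received 100 nL stock; the first replicate is given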
# Bfl-1 A1 inh – inhibitors of the anti-apoptotic protein A1, read as caspase activation | caspase activation, % (no concentration beside the values) | AID 2462 | 330,000 tested, 0.066% active | MEF A1-2A-BIM cells, Caspase-Glo 3/7 luminescence, 3 h; percent of clofoctol response, vehicle zero;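 active = over half of replicate activation scores above 10%, or exactly half above 10 with the replicate mean above 10; inconclusive = replicate mean below 10 yet half the replicates above 10; inactive = over half of replicates below 10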;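 note: wells of about 30 µL received 50 nL stock; many hits fall short of the cut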
# LANA-H2B inh – blocks KSHV LANA binding to histone H2A/H2B; Q9QR71; cell-free LANA-H2A/H2B peptide, fluorescence polarization; inhibition, % (no concentration beside the values); 320,000 tested, 0.6% active; in the data active = inhibition mostly above about 10%, no sharp cut-off; inactive = mostly below about 6.7%;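 note: stock transfer was 7.5 nL into about 10 µL; 0% = median of vehicle wells and 100% = median of positive control wells; one replicate is shown; the record names a cut of 25% in any replicate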
# Target sequence (Q9QR71 whole entry, looked up): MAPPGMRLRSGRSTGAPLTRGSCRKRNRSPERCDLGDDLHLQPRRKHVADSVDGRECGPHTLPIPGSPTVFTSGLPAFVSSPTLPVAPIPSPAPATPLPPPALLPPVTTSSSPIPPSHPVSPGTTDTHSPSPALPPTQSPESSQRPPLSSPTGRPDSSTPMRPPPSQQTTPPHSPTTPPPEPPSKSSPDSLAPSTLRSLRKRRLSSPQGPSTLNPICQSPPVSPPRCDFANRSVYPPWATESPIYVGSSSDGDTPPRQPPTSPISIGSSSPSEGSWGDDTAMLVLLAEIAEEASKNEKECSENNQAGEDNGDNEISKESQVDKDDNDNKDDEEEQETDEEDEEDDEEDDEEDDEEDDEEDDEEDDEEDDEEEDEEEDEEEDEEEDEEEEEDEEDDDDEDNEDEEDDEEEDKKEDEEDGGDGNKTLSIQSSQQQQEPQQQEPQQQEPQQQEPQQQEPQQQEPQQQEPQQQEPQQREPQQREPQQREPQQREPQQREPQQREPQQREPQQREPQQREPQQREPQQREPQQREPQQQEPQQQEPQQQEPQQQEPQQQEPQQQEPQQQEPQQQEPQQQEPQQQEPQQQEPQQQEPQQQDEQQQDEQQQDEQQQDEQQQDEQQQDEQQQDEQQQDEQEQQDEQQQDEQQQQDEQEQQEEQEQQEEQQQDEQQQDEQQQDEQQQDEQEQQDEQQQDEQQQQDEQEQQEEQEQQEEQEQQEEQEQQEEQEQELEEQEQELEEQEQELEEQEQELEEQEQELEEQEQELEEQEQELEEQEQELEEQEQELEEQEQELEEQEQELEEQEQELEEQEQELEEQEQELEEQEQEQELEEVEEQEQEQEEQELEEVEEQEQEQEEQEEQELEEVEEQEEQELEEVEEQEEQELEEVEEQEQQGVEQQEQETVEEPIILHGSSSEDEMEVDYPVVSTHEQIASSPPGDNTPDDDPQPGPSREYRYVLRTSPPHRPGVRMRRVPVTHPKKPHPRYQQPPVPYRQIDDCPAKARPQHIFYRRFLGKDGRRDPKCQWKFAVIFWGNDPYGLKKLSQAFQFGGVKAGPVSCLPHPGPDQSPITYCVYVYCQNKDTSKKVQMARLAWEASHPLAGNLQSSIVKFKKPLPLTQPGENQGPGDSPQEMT
# Calb FLC – affects C. albicans growth with fluconazole | C. albicans CaCi-2 (fluconazole-resistant clinical isolate) + fluconazole, Alamar Blue growth, 48 h | growth inhibition, % (test concentration not listed) | 300,000 tested, 0.57% active;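 active = most replicates above 75%; inconclusive = exactly half above 75%; inactive = most below 75%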;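 note: all wells also contain fluconazole at 8 µg/ml as a sub-toxic cotreatment; 0% = median of DMSO wells and 100% = median of geldanamycin control wells; wells of about 8 µL received 7.5 nL stock; the first replicate is given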
# Starred values were filed as active, the others as inactive; ? = inconclusive; · = not tested or not shown; & = joins results of further samples.
No.	Structure	T cruzi inh	RanGTP-Impb inh	Vif TR-FRET	AF4-AF9 inh	Beta apoptosis	Bfl-1 A1 inh	LANA-H2B inh	Calb FLC
1	COc1ccc(OC)c(C2C(C(=O)c3sc(C)nc3C)=C(O)C(=O)N2CCN2CCOCC2)c1 (stereo not given)	8	0.7	14%&5%	·	-7	0.8	4.7	7
2	CC1CN(C(=O)c2cc(Br)c(Br)s2)CC(C)O1 (stereo not given)	·	·	1%	3.7	2	1.3	0.0	·
3	O=C(Cc1cccc2ccccc12)N/N=C1\CCCc2ccccc21	12	0.7	-4%	·	9	-0.4	2.4	10
4	COc1ccc(C2/C=C\CN(S(=O)(=O)c3ccc(C)cc3)CC(=O)N2Cc2ccc(F)cc2)cc1 (stereo not given)	0	-0.5	·	1.4	4	-0.2	-5.7	9
5	c1ccc(CNc2ccc3c(c2)ncn3C2CCCCC2)nc1	48	6.0	10%	12	-4	0.2	0.5	-13
6	CCCn1c(SCC(=O)Nc2nonc2C)nnc1-c1ccoc1C	11	4.3	0%	·	-2	0.5	-14	·
7	CSc1nc2ccc(NC(=O)C3=NNC(=O)CC3)cc2s1	-5	-0.4	3%	-4.3	-3	-6.7	-0.4	-18
8	Cc1cc(Br)cc2c1NC(=O)C2(c1c(C)n(C)n(-c2ccccc2)c1=O)c1c(C)n(C)n(-c2ccccc2)c1=O	-4	-1.9	-8%	·	-2	0.6	-1.7	-1
9	NC(=S)Nc1ccc2cc[nH]c2c1	-2	3.0	11%	3.4	-2	-0.5	1.9	1
10	COC(=O)c1cc(S(=O)(=O)N2CCN(c3ccc(C(C)=O)cc3)CC2)c[nH]1	-6	1.5	·	-1.6	1	0.4	0.5	-9
11	CCC(C)c1ccc(NC(=O)COc2c(F)c(F)c(C(F)(F)F)c(F)c2F)cc1 (stereo not given)	15	-0.2	-6%	·	3	-0.6	2.1	-9
12	CCN(CC)CCOC(=O)/C=C/c1ccccc1OC	-8	1.9	-5%	·	2	0.3	0.5	1
13	CCCc1cc(C(=O)NNC(=S)NCC)c2ccccc2n1	-2	1.5	12%	·	·	0.6	-2.2	37
14	c1ccc(CSc2nnc(-c3cccs3)n2Cc2ccco2)cc1	6	?	11%	·	-5	0.2	-3.9	121*
15	CC(C)(C)NC(=O)NC(=O)COC(=O)Cn1c(C(F)(F)F)nc2ccccc21	-11	-4.8	12%	·	-3	-0.2	3.7	-14
16	Cc1cc(OCC(=O)Nc2ccc(CN3CCOCC3)cc2)c2c(C)cc(=O)oc2c1	-1	12	·	-2.6	13	-0.2	0.5	3
17	O=C(c1ccsc1)N1CCCC(N2CCN(c3cccc(Cl)c3)CC2)C1 (stereo not given)	-1	-0.1	·	2.0	-6	1.4	-1.4	30
18	O=C(NC1CCCC1)C(c1ccc(F)cc1)N(Cc1ccc(F)cc1)C(=O)CCl (stereo not given)	-13	-4.5	·	3.2	1	0.3	-1.5	-13
19	CC(=O)N(Cc1ccc(Br)cc1)c1ccccc1C(=O)O	-13	3.6	13%	1.8	2	-0.1	0.2	0
20	CC1(C)S/C(=N/N=C/c2ccco2)NC1=O	-17	?	?	·	-2	-0.4	6.3	-3
21	Cc1c(O)ccc2c(CN3CCOCC3)cc(=O)oc12	-10	53*	-1%	0.8	1	-0.6	5.4	34
22	O=C1NC(c2cccs2)C(C(=O)c2ccccc2)C(O)(C(F)(F)F)N1 (stereo not given)	-12	-4.3	-1%	·	-6	0.5	8.7	12
23	COCCNC(=O)c1c[nH]c2cc(OC)c(OC)cc2c1=O	0	-0.5	0%	·	-1	0.1	1.8	10
24	CC(C)(C)c1ccc(S(=O)(=O)NNC(=O)C2CCN(Cc3cccc(F)c3)CC2)cc1	-15	2.6	-1%	1.6	6	-0.4	-4.0	1
25	CCOC(=O)CCCCNC(=O)Nc1ccccc1	8	-0.7	-1%	0.6	-3	-0.5	·	-4
26	O=S1(=O)CCS(=O)(=O)C1c1ccccc1	-36	-2.4	·	-1.1	-6	-0.2	-2.3	2
27	COC(=O)CN1C(=S)N(c2ccc(OC)cc2)C(=O)/C1=C/c1cccs1	-1	0.5	·	·	-4	-0.3	0.1	-30
28	O=C(NCc1ccco1)C(c1ccncc1)N(C(=O)Cn1nnc2ccccc21)c1ccccc1F (stereo not given)	4	-0.5	·	2.4	-6	0.3	-8.7	1
29	CN1CCN(CCCNc2c(C=O)c(=O)[nH]c3ccccc23)CC1	-14	1.4	·	-2.8	-4	-0.3	6.3	15
30	CC1(C)CC(NC(=O)c2cc([N+](=O)[O-])cc([N+](=O)[O-])c2)CC(C)(C)N1	18	2.3	·	-1.0	48	-0.2	5.7	2
31	CCOc1ccc(NS(=O)(=O)c2ccc(NC(=S)NC(=O)C(C)C)cc2)cc1	-1	0.5	15%	·	-1	0.5	-3.3	0
32	O=C(CSc1ccc(-c2cccnc2)nn1)Nc1ccccc1C(F)(F)F	-18	-3.2	·	-1.6	-3	0.1	0.0	5
33	O=C(CCC(=O)N(CC(=O)NC1CCCCC1)Cc1ccccc1)Nc1ccccn1	-1	2.8	·	-0.5	3	0.9	0.8	0
34	CCOC(=O)CC1(NC(=O)c2cc(COc3c(F)cccc3F)on2)CCCCC1	9	1.9	·	-7.6	·	·	·	6
35	COC(=O)c1cc(-c2ccc(Cl)cc2)n(-c2ccc(S(N)(=O)=O)cc2)n1	12	1.7	3%	-11	-2	0.6	0.1	16
36	CC(C)n1nc(C(=O)NNC(=O)c2ccncc2)c2ccccc2c1=O	-8	1.2	4%	-2.2	5	-0.5	-0.1	7
37	Cc1ccc(/C=C2/SC(=O)N(CC(=O)N3CCOCC3)C2=O)s1	-6	-1.9	·	5.2	-7	-0.7	-3.7	41
38	O=C(Nc1ccc2c(c1)OCO2)c1cncc(Br)c1	6	4.1	17%	·	-2	-3.7	1.2	28
39	COc1ccc(S(=O)(=O)NCC(=O)N(CC2CCCO2)C(C(=O)NC2CCCC2)C(C)C)cc1 (stereo not given)	5	2.6	·	0.7	-1	2.4	-0.4	-12
40	CCOC(=O)C(C)c1n[nH]c(=O)c2ccccc12 (stereo not given)	-26	0.7	?	·	0	-0.6	3.0	26
41	CC(=O)Nc1ccc(Nc2nc(C)nc3c2nnn3Cc2ccccc2Cl)cc1	4	1.2	10%	0.3	4	-0.1	0.9	19
42	CC1CC1C(=O)OCC(=O)NCc1ccc(Cl)cc1 (stereo not given)	0	0.6	-3%	·	-1	-0.1	2.9	25
43	COc1ccc(Cc2nc3ccc(C(=O)NCCCSC)cc3o2)cc1OC	-8	-0.4	-6%	3.0	·	-0.9	4.9	-4
44	CCc1noc(C)c1C(=O)NNC(=O)c1cc(OC)c(OC)c(OC)c1	1	-2.3	-4%	-7.3	-5	-0.1	2.7	-8
45	COc1ccc(C(=O)NCC(=O)OCC(=O)Nc2cc(OC)ccc2OC)cc1	-13	-0.6	-2%	·	-1	1.9	-5.6	-3
46	CCOC(=O)C1=NOC(C(=O)NN(C)c2ncc(C(F)(F)F)cc2Cl)C1 (stereo not given)	-12	-0.7	-5%	-2.1	-2	-0.2	0.9	9
47	COc1ccc(C(=O)COc2cccc(NC(=O)c3ccco3)c2)cc1	-9	4.1	·	·	0	0.0	5.8	12
48	Cc1cc(C)c(C(=O)COC(=O)Cn2cnnn2)cc1C	-1	0.4	5%	·	-6	0.1	-2.0	-15
49	CC(=O)Nc1cc(NC(C)=O)c2nc(N)sc2c1	-13	-1.5	2%	·	1	0.5	-0.3	1
50	CSc1nc2nc3c(cc2c(=O)n1-c1cccc(C)c1)COC(C)(C)C3	1	0.5	-2%	0.9	7	-0.1	-3.3	-1

# Further records:
No.	Structure	T cruzi inh	RanGTP-Impb inh	Vif TR-FRET	AF4-AF9 inh	Beta apoptosis	Bfl-1 A1 inh	LANA-H2B inh	Calb FLC
51	O=C(CNCC1CCCCC1)Nc1ccccc1N1CCCCC1	16	-4.2	2%	·	·	0.1	-0.6	-9
52	CC(C)C(OC(=O)/C=C/c1ccc2c(c1)OCO2)C(=O)NC(N)=O (stereo not given)	-6	-2.4	9%	-0.8	0	-0.1	3.2	18
53	CCCC(c1nnnn1CS(=O)(=O)c1ccc(C)cc1)N1CCN(C2CCCC2)CC1 (stereo not given)	-3	8.5	·	0.7	·	-0.5	-4.5	-33
54	CCOC(=O)[C@@H]1[C@H]2COc3ccc(Br)cc3[C@@H]2N2C(=O)N(c3cccc(Cl)c3)C(=O)[C@]12C	-4	-0.7	·	3.3	4	-0.2	1.9	33
55	O=C(NCCOCC(F)(F)C(F)F)c1cc(F)c(F)cc1Cl	-6	3.0	7%	3.2	-2	0.5	0.8	-2
56	O=C(O)c1ccccc1/C=N/NC(=O)c1cc(-c2ccco2)nc2ccccc12	-10	-6.9	·	-2.5	3	-1.4	3.3	2
57	CCN(CC)C(=O)c1ccccc1NC(=O)c1ccccc1SC	-10	2.8	3%	-0.7	0	0.4	-4.4	36
58	CC1(OC(=O)CCc2ccccc2)C(=O)C=C2C=C(c3ccc(C#N)cc3)N(C3CC3)C=C2C1=O (stereo not given)	0	-4.5	·	1.6	-15	-0.8	-1.2	7
59	COc1ccc(C(=O)NCC2COc3ccccc3O2)cc1S(=O)(=O)N1CCOCC1 (stereo not given)	·	·	·	-1.1	0	0.0	-0.2	·
60	CCc1ccccc1NC(=O)c1cc(-c2ccc(OC)cc2)on1	-12	-2.2	1%	-4.4	-6	-1.8	1.9	10
61	COc1cc(/C=N/NC(=O)C(Cc2c[nH]c3ccccc23)NC(=O)OCc2ccccc2)cc([N+](=O)[O-])c1O (stereo not given)	2	-0.5	22%	·	-5	-0.3	-263	0
62	C/C(=N/NC(=O)c1cc(C2CC2)[nH]n1)c1cccs1	-8	1.6	2%	·	·	-7.8	-0.6	9
63	CCOC(=O)C1(CCOc2ccccc2)CCN(Cc2cc(OC)c3c(c2)OCO3)CC1	60*	1.1	17%	7.3	15	2.0	-1.7	?
64	COc1ccc(-c2cc(OC)c3ccccc3n2)cc1	10	-2.1	5%	·	4	0.4	-1.9	15
65	COC(=O)c1ccc(COc2cc([N+](=O)[O-])cc3cccnc23)o1	11	1.6	5%	-4.2	-4	0.8	1.7	18

# Sorted by length of the SMILES (descending): part of the list above
No.	Structure	T cruzi inh	RanGTP-Impb inh	Vif TR-FRET	AF4-AF9 inh	Beta apoptosis	Bfl-1 A1 inh	LANA-H2B inh	Calb FLC
61	COc1cc(/C=N/NC(=O)C(Cc2c[nH]c3ccccc23)NC(=O)OCc2ccccc2)cc([N+](=O)[O-])c1O (stereo not given)	2	-0.5	22%	·	-5	-0.3	-263	0
4	COc1ccc(C2/C=C\CN(S(=O)(=O)c3ccc(C)cc3)CC(=O)N2Cc2ccc(F)cc2)cc1 (stereo not given)	0	-0.5	·	1.4	4	-0.2	-5.7	9
36	CC(C)n1nc(C(=O)NNC(=O)c2ccncc2)c2ccccc2c1=O	-8	1.2	4%	-2.2	5	-0.5	-0.1	7
23	COCCNC(=O)c1c[nH]c2cc(OC)c(OC)cc2c1=O	0	-0.5	0%	·	-1	0.1	1.8	10
49	CC(=O)Nc1cc(NC(C)=O)c2nc(N)sc2c1	-13	-1.5	2%	·	1	0.5	-0.3	1
